Compound activity as filed in PubChem BioAssay.
Mtb bLac sens = beta-lactam sensitization of Mtb H37Rv, H37Rv | M. tuberculosis H37Rv growth with meropenem, percent inhibition; hits of this screen are not shown here | AID 434955, 2010 | 330,000 compounds, 0.27% hits | inhibition, % at 25 µM;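 active means about 74% or more and at least 40 points above the plate without the antibiotic, then above 30% in a dose series; inconclusive means first-round hits that could not be retested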;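 further: growth measured after seven days incubation then overnight dye step; 0% = bacteria only wells and 100% = bacteria with antibiotic; twin plates without the antibiotic show which effects depend on it; some results filed as inactive read as strong as hits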
Mtb growth = M. tuberculosis H37Rv growth inhibitors, H37Rv strain (AID 1626); M. tuberculosis H37Rv growth inhibition; higher % means a stronger effect; inhibition, % at 10 µM, or IC50 in µM where a hit was titrated; 220,000 compounds, 0.95% hits;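 active means confirmed in a dose series; inconclusive means inhibition above 80% but not taken into the dose series; inactive means below 80% or under 30% at every dose of the series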;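 further: bacteria incubated seven days before Alamar blue readout; 0% = bacteria only wells and 100% = bacteria with antibiotic wells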
YopH inh = YopH tyrosine phosphatase inhibitors, primary screen, biochemical, fluorescence Ex485/Em525 | inhibition, %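 (about 10 µM by stock and volumes)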 | 140,000 compounds, 0.16% hits | AID 898, 2007;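 active means inhibition of 50% or more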;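 further: controls were vehicle for no effect and minimum signal wells for full effect; inactives centre near -20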
RecA splice inh = Mtb RecA intein splicing inhibitors, primary screen, biochemical, fluorescence, HTS; Protein RecA (Mycobacterium tuberculosis (strain ATCC 25618 / H37Rv)), P9WHJ3; cell-free RecA intein splicing; inhibition, %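 (about 9 µM by stock and volumes)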; 290,000 compounds, 0.75% hits; AID 2221, 2009; in the data active means inhibition above about 30%; inconclusive means no clear call, values can overlap the other calls;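 further: 0% = vehicle wells and 100% = reference inhibitor control wells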
Target sequence (P9WHJ3 whole entry, looked up, canonical isoform): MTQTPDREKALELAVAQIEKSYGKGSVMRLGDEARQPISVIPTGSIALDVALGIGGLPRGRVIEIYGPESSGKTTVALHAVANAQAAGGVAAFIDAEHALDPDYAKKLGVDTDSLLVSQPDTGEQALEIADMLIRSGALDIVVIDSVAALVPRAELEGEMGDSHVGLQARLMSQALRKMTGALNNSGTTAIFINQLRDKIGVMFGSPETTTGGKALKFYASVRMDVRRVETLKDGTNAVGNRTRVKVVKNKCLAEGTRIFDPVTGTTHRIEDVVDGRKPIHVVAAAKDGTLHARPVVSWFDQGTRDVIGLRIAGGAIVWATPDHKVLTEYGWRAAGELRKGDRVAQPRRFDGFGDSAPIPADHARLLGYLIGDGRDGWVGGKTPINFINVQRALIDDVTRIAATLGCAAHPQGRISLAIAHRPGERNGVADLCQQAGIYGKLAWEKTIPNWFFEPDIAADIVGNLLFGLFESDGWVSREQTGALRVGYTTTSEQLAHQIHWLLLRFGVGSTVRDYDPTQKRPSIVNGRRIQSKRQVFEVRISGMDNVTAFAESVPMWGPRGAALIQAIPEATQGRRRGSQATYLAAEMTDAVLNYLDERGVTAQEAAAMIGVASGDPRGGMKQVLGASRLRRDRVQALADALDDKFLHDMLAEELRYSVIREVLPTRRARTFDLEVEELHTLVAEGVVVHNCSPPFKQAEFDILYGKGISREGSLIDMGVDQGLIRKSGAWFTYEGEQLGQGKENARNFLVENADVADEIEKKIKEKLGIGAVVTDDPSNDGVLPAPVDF
Arbovirus anti = antivirals against arbovirus infection, primary screen, cell-based, full library, 10K replicate subset; arbovirus infection cell-based antiviral screen; inhibition, % at 10 µM; 200,000 compounds, 0.37% hits;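 active means inhibition from about 30%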;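 further: bluetongue infection of BSR cells; cell survival read as ATP light after 72 h; 0% = infected wells without compound and 100% = uninfected wells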
Arbovirus anti repeat = recorded beside Arbovirus anti, whose call it bears; inhibition, %; measured here: 10K subset replicate screen; many hits read low in the repeat;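 first of two repeat runs on a subset; 0% = infected and 100% = uninfected wells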
An asterisk follows results filed as active; ? = inconclusive; · = no result given. A portion of the library; the hit share may differ from the screen's.

Start of the listing, in advance, six compounds:
SMILES	Mtb bLac sens	Mtb growth	YopH inh	RecA splice inh	Arbovirus anti	others
O=C1N(c2ccccc2)C(c2ccc(Cl)cc2)N2CCCN12 (centres undefined)	-2	1%	11	1.0	1
O=C(Nc1scc(-c2ccc(F)cc2)c1C(=O)O)c1ccco1	-24	-7%	-38	-1.4	35*
CCOC(=O)N1CCN(CC(=O)Nc2c(C(=O)OC)[nH]c3ccc(Cl)cc23)CC1	-2	·	9	3.2	-14
CCCN1CCN(S(=O)(=O)c2ccc(-n3cnnn3)cc2)CC1	-2	·	·	3.2	·
Cc1ccc(C(=O)N2CCC3(CC2)Oc2ccc(Cl)cc2C(=O)C32CC(c3ccccc3)=NO2)s1 (centres undefined)	41	7%	·	2.4	·
CC(=O)Nc1nc(C)c(Oc2ccccc2)c(=O)[nH]1	2	2%	-15	-5.6	10

The whole of this part, from the start:
SMILES	Mtb bLac sens	Mtb growth	YopH inh	RecA splice inh	Arbovirus anti	others
O=C1N(c2ccccc2)C(c2ccc(Cl)cc2)N2CCCN12 (centres undefined)	-2	1%	11	1.0	1
O=C(Nc1scc(-c2ccc(F)cc2)c1C(=O)O)c1ccco1	-24	-7%	-38	-1.4	35*
CCOC(=O)N1CCN(CC(=O)Nc2c(C(=O)OC)[nH]c3ccc(Cl)cc23)CC1	-2	·	9	3.2	-14
CCCN1CCN(S(=O)(=O)c2ccc(-n3cnnn3)cc2)CC1	-2	·	·	3.2	·
Cc1ccc(C(=O)N2CCC3(CC2)Oc2ccc(Cl)cc2C(=O)C32CC(c3ccccc3)=NO2)s1 (centres undefined)	41	7%	·	2.4	·
CC(=O)Nc1nc(C)c(Oc2ccccc2)c(=O)[nH]1	2	2%	-15	-5.6	10
Cc1ccc(C(=O)CC(C(=O)O)n2cnc([N+](=O)[O-])n2)cc1 (centres undefined)	8	2%	·	-0.7	-1
O=C(CCN1CCCC1)Nc1cccc(Br)c1	-7	3%	-31	-2.4	5
O=C(/C=C/c1ccccc1)NCCCNC(=O)/C=C/c1ccccc1	4	5%	·	2.6	5
Nc1cc(N2CCNCC2)c([N+](=O)[O-])cc1Cl	-4	6%	-18	-1.0	-9
Cn1c(=NC(=O)COc2ccccc2)sc2cccc(F)c21	18	5%	·	-1.2	·
CCn1c2ccccc2c2nnc(SCC(=O)c3ccccc3)nc21	-4	3%	-24	·	0	Arbovirus anti repeat=4
CCOc1ccc(C(c2c(NC(=O)c3ccccc3)sc(C)c2C)N2CCN(CCO)CC2)cc1 (centres undefined)	33	8%	-6	7.7	-32
CC(Oc1ccccc1)C(=O)N(CCC1=CCCCC1)c1c(N)n(Cc2ccccc2)c(=O)[nH]c1=O (centres undefined)	-11	·	·	1.1	·
Clc1ccc(-n2ncc3c(NCc4cccnc4)ncnc32)cc1Cl	6	·	·	0.5	·
Cc1ccccc1-c1noc(-c2ccccc2C(=O)N2CCCC2)n1	-4	3%	-37	-2.0	-2
CCN(CC)C1=CC2=CC(=C(C#N)C#N)CCC2CC1 (centres undefined)	-2	20%	-15	-16	-1
C=CCC1(Cl)C(=O)C(Cl)=C(N2CCN(C)CC2)C1(OC)OC (centres undefined)	27	-5%	·	-0.5	·
O=c1sc(N2CCN(c3ccc(F)cc3)CC2)nc2ccsc12	0	3%	-34	-1.2	-9
COc1ccc(CCC(C)Nc2ccc(F)c(F)c2)cc1 (centres undefined)	10	21%	-18	12	1
Cc1ccc(C2C(C#N)=C(N)Oc3c2sc2ccccc32)o1 (centres undefined)	5	9%	0	-20	-16
CCCN(CC(=O)Nc1ccccc1C)C(=O)c1ccc(NC2CC2)c([N+](=O)[O-])c1	-5	·	·	-0.9	·
COc1ccccc1N(C)S(=O)(=O)c1ccc(Cl)c(C(=O)NCCCN2CCOCC2)c1	-15	·	·	4.2	·
O=C1/C(=C/C=C/c2ccco2)SC(=S)N1c1ccc(O)cc1	87	1%	·	16	·
CC(C)(C)NC(=O)Cn1nnc(-c2ccc(S(C)(=O)=O)cc2)n1	-2	11%	-22	-3.7	2
CCOC(=O)C(NS(=O)(=O)c1ccccc1)(C(F)(F)F)P(=O)(OC(C)C)OC(C)C (centres undefined)	-2	6%	-28	-1.1	2
CCOC(=O)c1[nH]c(CO)c(C(=O)OCC)c1C	1	0%	·	-0.9	·
O=[N+]([O-])c1ccc(/C=C/c2ccc3cccc([N+](=O)[O-])c3n2)cc1	2	-6%	-14	0.0	-10
Cc1cccn2cc(COc3cccc([N+](=O)[O-])c3)nc12	-1	0%	·	1.5	-1
Cc1ccc(C)c(C2=NNC(=O)CC2)c1	-5	·	·	-0.8	·
COc1cccc(N=Nc2ccc3ccccc3c2O)c1	3	·	·	6.6	·
C/C(Cl)=C/Cn1c(N2CCCC2)nc2c1c(=O)n(C)c(=O)n2C	5	-3%	-9	·	5
Cc1ccc(CNC(=O)C2(c3cccs3)CCOCC2)cc1	0	0%	-19	-1.8	1
Cc1ccc(C2(CCN)CCOC(C(C)C)C2)cc1 (centres undefined)	-8	-3%	-28	3.0	14
Cc1cccc(OCC(=O)Nc2nc3ccc([N+](=O)[O-])cc3s2)c1	-2	9%	12	-1.6	10
Cc1ccc(NCC(=O)N/N=C\C(Br)=C\c2ccccc2)cc1	10	?	-11	-1.2	-2
N#CCSc1nc2ccccc2o1	-1	-6%	·	1.1	·
CCN(CC)c1ccc(O)c(C=Nc2ccc(C)c(C)c2)c1	-7	50%	·	-2.3	3
N#CC1(NC(=O)COC(=O)CCN=C2NS(=O)(=O)c3ccccc32)CCCCC1	-16	·	·	0.1	·
O=C(c1cc(-c2ccc(Cl)cc2)on1)N1CCc2ccccc2C1	3	·	·	-4.0	·

Quoted from the results shown (three entries):
SMILES	Mtb bLac sens	Mtb growth	YopH inh	RecA splice inh	Arbovirus anti	others
Cc1ccc(CNC(=O)C2(c3cccs3)CCOCC2)cc1	0	0%	-19	-1.8	1
Cc1ccc(C2(CCN)CCOC(C(C)C)C2)cc1 (centres undefined)	-8	-3%	-28	3.0	14
Cc1cccc(OCC(=O)Nc2nc3ccc([N+](=O)[O-])cc3s2)c1	-2	9%	12	-1.6	10

(cont.)
SMILES	Mtb bLac sens	Mtb growth	YopH inh	RecA splice inh	Arbovirus anti	others
COCCCNC(=O)/C(C#N)=C/c1ccc(F)cc1	3	5%	·	1.0	2
O=C(COc1c(Br)cc(Br)c2cccnc12)N1CCc2ccccc2C1	?	-7%	-33	2.5	-43
CC1=C(C(=O)OCC2CCCO2)C(c2cccc(O)c2)NC(=O)N1 (centres undefined)	4	0%	-18	-1.6	1
CCn1c(-c2ccccc2Cl)nn(CC(=O)Nc2ccccc2OC)c1=S	-8	-9%	-23	-0.4	5
Cc1cc(-c2ccccc2)nc(N/N=C/c2ccc(O)cc2O)n1	59	·	·	2.1	·
CCCCC1=CC2=C(c3ccco3)C(=O)C(C)(OC(=O)c3ccc(OC)cc3)C(=O)C2=CN1CCN1CCOCC1 (centres undefined)	3	-8%	·	-9.1	·
CN(Cc1ccccc1)C(=O)c1ccc(NC(=O)c2ccccc2)cc1	3	·	·	0.4	·
O=c1cc(O)c2ccccc2[nH]1	-4	6%	·	-4.6	-3
COC(=O)COc1cccc(NC(=O)c2cccs2)c1	78	13%	-34	2.6	4
O=C(CN1C(=O)c2ccccc2S1(=O)=O)c1ccccc1F	6	·	·	-1.5	·
Cc1cc(N2CCN(S(=O)(=O)c3ccccc3)CC2)c2ccccc2n1	-1	2%	-38	1.2	18
Cc1cc(Oc2ccc(=O)n(C)n2)nc(=S)[nH]1	-7	7%	·	2.1	6
COc1ccc(O)c(CN2CCN(CCCc3ccccc3)C(CCO)C2)c1 (centres undefined)	7	·	·	-2.8	·
CCCCNC(=S)N(C)/N=C/c1sc(N2CCCCC2)nc1-c1cccs1	3	5%	-12	-9.4	13
CCN(CC)CCn1c(=S)[nH]c2ccc(Br)cc2c1=O	0	7%	·	9.5	10
O=c1cc(CSc2n[nH]c(=O)n2C2CC2)c2ccc(O)cc2o1	-11	1%	·	-8.4	·
CCOC(=O)C1=C(O)C(=O)N(c2ccc(S(N)(=O)=O)cc2)C1c1ccc([N+](=O)[O-])cc1 (centres undefined)	0	-6%	·	0.1	·
COC(=O)CCC(=O)NNC(=O)c1ccc(Br)cc1	-10	-2%	-4	-0.1	-2
CC1(C)CN(c2ccccc2)N(Cc2ccc(F)cc2)C1=O	·	2%	-23	1.9	-1
CCOc1ccccc1NC(=O)Nc1ccc(CC#N)cc1	-1	-5%	·	2.7	·
CCCN(CC(=O)Nc1ccccc1OC)C(=O)c1ccncc1	-4	·	·	0.2	·
COc1cc(/C=C2\N=C(c3c(-c4ccccc4)noc3C)OC2=O)ccc1OC(C)=O	3	-5%	·	0.6	1
COc1cc(OC)c(OC)cc1CNCCc1ccc(OC)c(OC)c1	-16	-9%	-38	3.0	9
CCC(C)(C)n1nnnc1C(c1ccc(O)c(OC)c1)N1CCc2ccccc2C1 (centres undefined)	1	-3%	-5	·	5
CCC(=O)N/C(=N/c1nc(C)cc(C)n1)Nc1cccc(OC)c1	2	1%	-15	2.4	-13	Arbovirus anti repeat=-11
CCC1=C(c2ccc(C)cc2)S(=O)(=O)N=C1N1CCC(C(=O)NCCCN2CCCCC2C)CC1 (centres undefined)	-11	·	·	-0.9	·
Cc1ccc(N2Cc3ccccc3C2=N)cc1[N+](=O)[O-]	-6	-3%	·	0.2	4
CCCn1c(=O)c(C(=O)NCCc2ccc(OC)c(OC)c2)c(O)c2ccccc21	1	·	·	2.4	·
Cc1csc(Nc2ccccc2)n1	-12	4%	·	-12	-7
COc1cccc(OC)c1C(=O)NC(=S)N1CCOCC1	-7	-5%	·	-4.5	7
CCOc1cc(Br)c(Br)c(C=Nc2ccc(NC(C)=O)cc2)c1O	-8	-1%	-6	-1.3	-5
COc1cc(CNCCO)cc(Cl)c1OCc1ccc(Cl)cc1Cl	100	38%	·	0.2	-44
O=C(NC1CC1)c1cc(OCC(F)(F)F)ccc1OCC(F)(F)F	19	-12%	·	0.2	0
CC(=O)Nc1ccc(OCC(=O)NCc2ccc(C)cc2)cc1	6	5%	·	-2.0	1
COc1ccc(NC(=O)CSc2nnc3ccc(-c4ccncc4)nn23)cc1	-1	·	·	0.6	·
O=C(Nc1sc2c(c1C(=O)O)CCCCC2)c1cccs1	-2	-4%	·	0.2	46*
COc1cc(NC(c2ccccc2)c2ccccc2)cc(OC)c1OC	4	1%	·	0.6	1
Cc1ccc(CNC(=O)c2cnc3ccccc3n2)cc1	-4	·	·	2.2	·
O=C(c1cc(=O)c2ccccc2o1)N(Cc1ccccc1)C1CCS(=O)(=O)C1 (centres undefined)	-2	·	·	9.6	·
CCC1(c2ccccc2)NC(=O)N(CC(=O)Nc2ccc(Cl)c(S(=O)(=O)N3CCCCC3)c2)C1=O (centres undefined)	-1	·	·	12	·
CCN(Cc1nc(-c2ccccc2)no1)C(=O)c1ccoc1C	1	·	·	3.4	·
C=Cc1ccc(N=Cc2c(O)ccc3ccccc23)cc1	91	·	·	0.1	·
CCc1noc(C)c1C(=O)N1CCN(S(=O)(=O)c2ccc(C)cc2)CC1	0	·	·	0.6	·
OCCC1CN(Cc2cccc(F)c2F)CCN1CCc1ccccc1 (centres undefined)	-4	·	·	-2.4	·
COc1ccc(N2CS(=O)(=O)/C(=C/N(C)C)C2=O)cc1	-12	-10%	-26	2.1	3
CCOc1cc(C2C3=C(CCCC3=O)NC3=C2C(=O)CCC3)cc(Cl)c1O	2	-8%	·	-6.2	1
O=C(CCc1ccc(S(=O)(=O)N2CCCCC2)cc1)c1nnc(-c2ccccc2)o1	25	0%	-48	2.9	9
COc1ccc(CNC(NC(=O)c2ccccc2)(C(F)(F)F)C(F)(F)F)cc1	6	3%	38	0.2	15
CCc1ccccc1NC(=O)c1ccoc1C	-1	-4%	9	1.3	0
Cn1c(=O)n(C)c2cc(NS(=O)(=O)c3cccs3)ccc21	-6	-1%	·	-2.9	-9
Next part
SMILES	Mtb bLac sens	Mtb growth	YopH inh	RecA splice inh	Arbovirus anti	others
CC(C)c1nc(C#N)c(NN)o1	-1	-11%	·	-3.8	·
O=C(CSc1ccc(-c2ccccc2)nn1)c1ccccc1	-5	1%	-21	-6.3	-9
COc1ccc(C2C(C(=O)NCC3CCCO3)c3cc(OC)c(OC)cc3C(=O)N2C)cc1OC (centres undefined)	6	-13%	-25	0.8	3	Arbovirus anti repeat=4
COc1ccc(NC(=S)NC23CN4CN(CN(C4)C2)C3)cc1	-7	7%	-14	5.4	9
